Bioassay records deposited in PubChem by several laboratories.
Mtb hypoxia inh: PubChem AID 1159583; M. tuberculosis hypoxia-regulated fluorescent reporter, fluorescence; fluorescence inhibition, % (no concentration beside the values); 0.1% of 300,000 active;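 active = 35 to 45% if threefold the growth effect, above 45% if 1.5-fold the growth effect; inactive = the rest, general growth blockers included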;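 note: wells of about 50 µL received 100 nL stock; 0% = vehicle wells and 100% = reference inhibitor wells; whole bacteria with a GFP reporter of the hypoxia response; strong numbers were not always called active; many hits fall short of the cut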
BJeLR viability: MLPCN primary cell-based screen for lethality selective to Ras in HRASV12 cells; BJeLR (HRASV12) viability, CellTiter-Glo ATP luminescence, 48 h; reference of the scale not given here; 0.17% of 300,000 active; inhibition, % (concentration not given with the values);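 active = replicate mean above 50%; inconclusive = above 50% but judged a plate artefact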;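 note: 50 nL library stock added to about 25 µL; numbers are from one replicate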
Bead autofluor: counter-screen for toxin protease inhibitors: compound fluorescence. compound autofluorescence counterscreen, microsphere flow cytometry; active compounds read high. fluorescence intensity (concentration not given with the values). 3.1% of 360,000 active. AID 624483;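 active = at least 3 SD above the mean of all compounds, about 16000 in these data; inconclusive = too few beads counted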;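 note: 100 nL of 1 mM stock went into each well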
PrP UTR inh: inhibition of PrP 5' UTR reporter expression; cell-based PrP 5' UTR mRNA reporter, plate reader; inhibition, % (concentration not given with the values); 0.35% of 340,000 active;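 active = every replicate at 50% or more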;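 note: 0 = median of the neutral control wells; tested in H4 reporter cells; numbers are from one replicate; inactives centre near -14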
RN4220 kill: growth inhibition of S. aureus RN4220, primary screen, OD600 | 16 h | inhibition, % (test concentration not listed) | 0.33% of 330,000 active;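 active = z-score of -3 or lower and OD600 up to 0.18 on both plates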;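 note: plate controls were untreated cells for no effect and reference antibiotic for full effect; stock transfer was 100 nL into about 80 µL; one replicate is shown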
ugtP null kill: growth inhibition of ugtP-null S. aureus, primary screen, RN4220 ugtP deletion, OD600. AID 1259309, 2017. 0.54% of 330,000 active. 16 h; some inactives read as strong as hits. growth inhibition, % (concentration not given with the values);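 active = z-score under -3 and OD600 up to 0.15 on both plates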;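 note: plate controls were untreated wells for no effect and antibiotic for full effect; wells of about 80 µL received 100 nL stock; the first replicate is given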
Mtb hypoxia inh growth: also measured in Mtb hypoxia inh; calls as there; growth inhibition, %; measured here: M. tuberculosis growth (absorbance);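 0% = vehicle and 100% = reference antibiotic; read after six days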
The depositor's hits bear a star; ? = inconclusive; . = not tested or not shown.

SMILES	Mtb hypoxia inh	Mtb hypoxia inh growth	BJeLR viability	Bead autofluor	PrP UTR inh	RN4220 kill	ugtP null kill
O=C(Nc1ccncc1NC(=O)c1cccc([N+](=O)[O-])c1)c1cccc([N+](=O)[O-])c1	0	6	7	3909	-18	0.4	3
CCCCOC(=O)C(NC(=O)c1ccccc1)=C(C)C	.	.	7	2687	-2	1.0	1
CCC1(c2ccc(F)cc2)NC(=O)N(CC(=O)NCC(=O)Nc2cccc(C)c2C)C1=O (stereo not given)	6	-5	3	?	-12	3.4	4
CCN1CCc2c(sc3c2c(NCc2ccco2)nc2nnnn23)C1	2	5	0	4609	-20	2.7	1
Cc1ccc(OCCn2cc(C=NNC(=O)c3ccncc3)c3ccccc32)cc1	10	10	.	.	.	2.5	-1
COc1ccc(NC(=O)CS(=O)(=O)c2ccc(Br)cc2)cc1	13	1	-2	4108	-38	3.8	7
Cc1cc(C)c(S(=O)(=O)NC(C)C)c(C)c1-n1cnnn1	-3	4	-2	4675	-13	2.6	2
Cc1ccc(C)c(NC(=O)NNC(=O)c2cc3ccccc3cc2O)c1	9	10	-13	5132	-20	4.9	2
O=S(=O)(c1ccc(F)cc1)N1CCC(O)(c2ccc3c(c2)OCO3)CC1	9	10	-4	8819	-26	1.9	6
COCc1cc(=O)[nH]c2cc(NC(=O)C(C)(C)CCl)c(C)cc12	5	4	25	7872	-6	1.8	0
O=C(NC1CCCC1)C(c1ccc(Cl)cc1)N1CCN(C2CCCCC2)CC1 (stereo not given)	4	12	-15	4682	.	0.2	5
COc1cccc(CNc2nc3nc4c(c(=O)n3[nH]2)CCC4)c1	8	6	-1	2989	-6	6.2	2
CC(OC(=O)Cc1ccc(Br)cc1)C(=O)NC1CCCC1 (stereo not given)	11	8	.	3176	-12	2.8	-1
CCOc1cc(/C=N/N=C2/NC(=O)C(CC(=O)O)S2)ccc1OCc1ccc(Cl)cc1Cl (stereo not given)	.	.	10	4455	-38	.	.
Fc1ccccc1NC(=S)N1CCCCC1	.	.	-5	2831	0	4.9	7
CC(=O)NC1(c2ccc(F)cc2)CCN(C(=O)c2c(F)cccc2F)CC1	4	9	0	3839	-7	4.5	3
COCCN=c1scc(-c2ccco2)n1N=Cc1ccc(O)c(O)c1O	8	0	.	.	.	6.1	-4
CC(=O)/C(C#N)=C1\NC(=O)C(Cc2ccc(F)cc2)S1 (stereo not given)	0	-7	-5	3726	-27	5.5	13
COc1ccc(-c2cc(C(=O)NCC3CCCO3)c3ccccc3n2)cc1 (stereo not given)	11	9	7	4347	-22	5.0	4
O=C(NN=Cc1cccnc1)c1cccc(S(=O)(=O)N2CCCC2)c1	4	6	.	.	.	-2.1	3
Clc1ccc(C(OCCN2CCCCC2)c2ccccc2)cc1 (stereo not given)	21	14	.	5965	-11	-0.2	6
COc1ccc2c(CC(=O)OCC(=O)NC(=O)c3cccn3C)coc2c1	.	.	8	2817	-1	2.5	0
O=C(COc1cccnc1[N+](=O)[O-])NCCc1ccccc1	-4	2	1	3896	-19	-0.7	-6
CCc1sc(C(=O)Nc2cccc(-n3cnnn3)c2)cc1C	0	11	.	5365	-9	2.8	-7
CCOc1ccc(N(C)S(=O)(=O)c2ccc(C)c(C(=O)OCC(=O)c3c[nH]c4ccccc34)c2)cc1	11	4	-2	2219	-15	-5.5	-7

An excerpt from above, limited to PrP UTR inh:
SMILES | PrP UTR inh
COc1ccc(NC(=O)CS(=O)(=O)c2ccc(Br)cc2)cc1 | -38
CC(OC(=O)Cc1ccc(Br)cc1)C(=O)NC1CCCC1 (stereo not given) | -12
Cc1ccc(C)c(NC(=O)NNC(=O)c2cc3ccccc3cc2O)c1 | -20

(further entries)
SMILES	Mtb hypoxia inh	Mtb hypoxia inh growth	BJeLR viability	Bead autofluor	PrP UTR inh	RN4220 kill	ugtP null kill
CCOC(=O)c1c(NC(=O)CCl)sc(CN(C)C)c1-c1ccccc1	18	19	0	4804	-7	3.7	-1
Cc1cc(NS(=O)(=O)c2ccc(NC(=O)C(c3ccccc3)c3ccccc3)cc2)no1	6	11	-2	15772	-18	7.5	10
COc1ccc(C2=NN(C(=O)c3ccccc3)C(c3ccc(OC)c(OC)c3)C2)c(O)c1 (stereo not given)	14	4	9	3160	-16	0.6	4
O=C(Nc1nnc(C23CC4CC(CC(C4)C2)C3)s1)c1ccc(N2C(=O)CCC2=O)cc1	8	2	-9	6113	-2	-8.6	-5
OCC1(Cc2ccccc2)CCN(Cc2cnn(-c3ccccc3F)c2)CC1	-6	8	-4	4117	-5	0.6	1
CCN1CCN(C(=O)NC(c2ccc(C)c(F)c2)C(Cl)Cl)CC1 (stereo not given)	1	0	-1	2779	-17	-1.3	1
Cc1ccc(-c2cc(C(=O)N/N=C/C=C/c3ccccc3)n[nH]2)o1	.	.	3	2310	-21	.	.
Cc1ccc(NC(=O)CN2C(=O)N/C(=C/c3cc(C)n(-c4ccc(C(=O)O)cc4)c3C)C2=O)cc1	3	7	.	3737	-14	8.7	5
O=C1/C(=C/c2ccc(F)c(F)c2)CSc2sccc21	.	.	-2	2862	16	-11	12
CC1N(C(=O)N(C)C)CCN1S(=O)(=O)c1ccccc1 (stereo not given)	4	10	-8	3679	-20	-0.4	9
[O-]/C(=C(\C(=S)Nc1ccccc1F)[n+]1ccccc1)c1ccc(-c2ccccc2)cc1	-3	15	-6	4330	-28	3.1	10
Cc1ccn(-c2ccc(NC(=O)c3cccs3)cc2)n1	5	2	16	5506	-93	1.3	1
Cc1noc(C)c1S(=O)(=O)N1CCC(C(=O)N2CCN(c3ccccc3Cl)CC2)CC1	.	.	-2	.	-1	1.5	0
CC(=O)c1ccc(N2CCN(C3CCC(C(C)(C)C)CC3)CC2)cc1 (stereo not given)	16	5	-4	4043	-10	7.1	7
Cc1ccccc1NC(=O)/C(C#N)=C/c1ccc(-c2ccc(Cl)c(C(=O)O)c2)o1	.	.	-8	3838	-21	.	.
Cc1ccsc1C=NNC(=O)Cn1nnc2ccccc21	10	4	.	.	.	4.2	7
CCOc1cc2c3c(c1)C(C)CC(C)(C)N3C(=O)C2=O (stereo not given)	3	-1	8	7877	.	8.0	10
CC(Sc1ncccn1)C(=O)Nc1ccc2c(c1)OCCO2 (stereo not given)	2	-2	.	4382	-22	2.3	6
COc1cc(/C=N/n2c(-c3ccccc3)n[nH]c2=S)cc(OC)c1O	.	.	-2	4477	-48	.	.
COc1cc(C=NNC(=O)CSc2ccccn2)ccc1OC(C)C	7	8	.	.	.	4.2	3
COc1ccc(N(C(=O)c2cnccn2)C(C(=O)NC2CCCCC2)c2cc(OC)c(OC)c(OC)c2)cc1 (stereo not given)	12	6	0	3349	1	4.4	8
Cc1[nH]nc2c1C1(CCN(C(=O)OCc3ccccc3)CC1)C(C#N)=C(N)O2	.	.	-6	4154	-25	0.9	5
OCC1(Cc2cccc(F)c2)CCN(Cc2cccc3nccnc23)CC1	10	16	5	4045	-46	16	7
O=C(CN1CCN(Cc2ccccc2F)C1=O)NC1CCCC1	13	-3	3	?	-12	2.3	3
Cc1ccc(OCC(=O)NC2CCCc3ccccc32)c(C)c1 (stereo not given)	-1	-3	0	2545	-33	-7.4	-7

The results go on.
SMILES	Mtb hypoxia inh	Mtb hypoxia inh growth	BJeLR viability	Bead autofluor	PrP UTR inh	RN4220 kill	ugtP null kill
CC(=O)c1ccc(NC(=O)/C(=C\c2ccco2)NC(=O)c2ccco2)cc1	.	.	-3	4254	-25	.	.
CS(=O)(=O)c1ccc(CNC(=O)C2(C(F)(F)F)CC(=CCc3ccccc3)CCCO2)cc1 (stereo not given)	-6	0	.	.	.	4.5	-11
Cc1cc(C)cc(N=C(NO)c2cccc([N+](=O)[O-])c2)c1	.	.	1	3858	-20	1.3	2
CCOc1ccc(NC(=O)CN(C)C(=O)c2csc3c2CCCC3)cc1OCC	9	5	.	7834	-26	-1.3	15
NCC(=O)NNC(=O)OCC1c2ccccc2-c2ccccc21	3	5	-5	3902	-16	4.0	6
COc1cccc([C@@]2(O)CCCCC2CN(C)C)c1 (stereo not given in full)	12	4	.	.	.	3.8	1
CC(C)CC(=O)N1CCN(Cc2cccc(Cl)c2)CC1	13	4	-11	.	-5	1.8	0
Cc1ccc(C=NNC(=O)c2nnn(-c3nonc3N)c2-c2cccs2)cc1	12	6	.	.	.	3.1	2
CNc1cc(CSC)nc(SCc2ccc(Cl)cc2Cl)n1	4	4	19	8856	-8	-14	50
CCN(CC)c1ccc(C(=O)OCC(=O)c2ccco2)cc1	.	.	6	4356	-72	-1.2	-1
CCSc1nc2sc3c(c2c2[n+]1CC(CBr)O2)CCCC3 (stereo not given)	-8	-4	1	4268	.	-0.6	10
N#Cc1ccc(NCC(=O)N2CCN(S(=O)(=O)c3ccccc3)CC2)cc1	43*	81*	.	8537	-8	1.6	1
CCn1c(C)nc2cc(C(=O)NNS(=O)(=O)c3ccccc3F)ccc21	22	12	0	3763	-17	-11	-5
COCCCNC(=O)CC1C[C@H](C(=O)N2CCCCC2)[C@@]2(C)c3[nH]c4ccccc4c3CCN2C1=O (stereo not given in full)	3	-2	.	3967	-14	2.0	7
Clc1ccc(C=NNc2nn[nH]n2)cc1	0	-6	.	.	.	-3.3	-2
COC(=O)c1ccc(COC(=O)C(CCSC)NC(=O)COc2ccccc2)cc1 (stereo not given)	9	-17	-4	6081	-4	3.8	4
COc1ccc2c(c1OC)C(=O)OC2Nc1nc(-c2cc3cc(Br)ccc3oc2=O)cs1 (stereo not given)	-1	-9	14	4512	-90	2.2	-3

Some of these compounds in order of SMILES length, ascending:
SMILES	Mtb hypoxia inh	Mtb hypoxia inh growth	BJeLR viability	Bead autofluor	PrP UTR inh	RN4220 kill	ugtP null kill
COc1cccc([C@@]2(O)CCCCC2CN(C)C)c1 (stereo not given in full)	12	4	.	.	.	3.8	1
CCN(CC)c1ccc(C(=O)OCC(=O)c2ccco2)cc1	.	.	6	4356	-72	-1.2	-1
CCSc1nc2sc3c(c2c2[n+]1CC(CBr)O2)CCCC3 (stereo not given)	-8	-4	1	4268	.	-0.6	10
Cc1cc(C)cc(N=C(NO)c2cccc([N+](=O)[O-])c2)c1	.	.	1	3858	-20	1.3	2
CCOc1ccc(NC(=O)CN(C)C(=O)c2csc3c2CCCC3)cc1OCC	9	5	.	7834	-26	-1.3	15
CC(=O)c1ccc(NC(=O)/C(=C\c2ccco2)NC(=O)c2ccco2)cc1	.	.	-3	4254	-25	.	.
COc1ccc2c(c1OC)C(=O)OC2Nc1nc(-c2cc3cc(Br)ccc3oc2=O)cs1 (stereo not given)	-1	-9	14	4512	-90	2.2	-3
